Bioassay records: PubChem, National Center for Advancing Translational Sciences (NCATS)
PINK1 modulator – A Quantitative High throughput Screen to Identify Chemical Modulators of PINK1 Expression; PINK1 immunofluorescence, high-content cytometry, 24 h; Potency, µM (series often up to 76.6 µM), inactives show top-dose activation (PINK1 increase), most hits filed as activators; 410,000 tested, 0.2% active; AID 624263, 2012; active = well fitted activation curve with a large enough effect; inconclusive = small, poorly fitted or top-dose-only effect; inactive = flat fitted curve, though single readings scatter; cell line not stated here;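 note: potency is the fitted concentration of half-maximal effect; % of control where 0% means no effect; nearly all actives have a fitted effect of over 65% in size; a mitochondrial uncoupler was the plate control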
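A stable cell line was treated with compounds at 5 concentrations for 24 hours, with CCCP as control. PINK1 levels and mitochondrial localization were measured by immunofluorescence with mitochondrial, cell and nuclear markers after fixation, read by laser-scanning cytometry.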
TRPML1 ag – qHTS for Agonists of the Human Mucolipin Transient Receptor Potential 1 (TRPML1); 410,000 tested, 0.12% active; TRPML1-expressing cells, Ca2+ dye fluorescence, FDSS; host cell line not named in the record; reference of the full effect not given here; Mucolipin-1 (Homo sapiens), Q9GZU1; AID 624414, 2012; activation, % (no concentration beside the values); in the data active = activation above about 50%; inconclusive = about 30% to 50%; inactive = below about 30%; note: 0% is about no effect; the text of the record puts the active cut at 80%
Target sequence (Q9GZU1 whole entry, looked up): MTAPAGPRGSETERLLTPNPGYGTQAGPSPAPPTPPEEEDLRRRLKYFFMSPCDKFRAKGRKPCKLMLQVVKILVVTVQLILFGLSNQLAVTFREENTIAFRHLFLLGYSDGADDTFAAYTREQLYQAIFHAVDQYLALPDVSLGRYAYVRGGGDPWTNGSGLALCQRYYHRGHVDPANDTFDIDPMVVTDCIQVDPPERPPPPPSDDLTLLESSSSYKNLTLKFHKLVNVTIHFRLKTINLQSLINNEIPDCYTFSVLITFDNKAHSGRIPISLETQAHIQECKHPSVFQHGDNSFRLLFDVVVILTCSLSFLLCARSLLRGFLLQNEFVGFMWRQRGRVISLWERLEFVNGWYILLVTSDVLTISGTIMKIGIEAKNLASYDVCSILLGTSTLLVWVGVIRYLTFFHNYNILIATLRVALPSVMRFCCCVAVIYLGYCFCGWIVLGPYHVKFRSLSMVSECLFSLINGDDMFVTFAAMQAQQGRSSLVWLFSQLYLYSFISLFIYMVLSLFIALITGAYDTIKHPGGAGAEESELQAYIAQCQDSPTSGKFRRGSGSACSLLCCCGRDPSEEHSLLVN
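Tet-induced TRPML1-DL cells, 1,500 per well, cultured overnight, were loaded with a no-wash Ca2+ dye for 45–90 min. Calcium fluorescence was recorded on the FDSS for 110 s after compound addition, before the EC80 agonist (4 uM 54-4) was added.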
* = called active by the depositor; ? = inconclusive.

SMILES	PINK1 modulator	TRPML1 ag
CC(C)c1cc(C(=O)NCc2ccccc2)no1	1.4%	-1.2
Cc1c(Cl)cccc1-n1c(CCC(=O)O)ccc1-c1cccs1	-1.4%	1.1
COc1ccc(Cl)cc1NC(=O)Cn1nnc2sc(-c3ccccc3)cc2c1=O	0.5%	1.3
CCOc1ccccc1N1CC(c2nc3ccccc3n2CCCOc2ccccc2OC)CC1=O (stereo not drawn)	5.5%	-0.5
CCOC(=O)c1ccccc1NC(=O)Nc1cc2c(cc1N1CCCCC1)n(C)c(=O)n2C	0.9%	0.4
COC(=O)CSCc1nc(-c2ccc(C(=O)OC)cc2)oc1C	0.5%	0.7
Cc1ccc(C)c(NC(=O)CCc2nc3cccnc3n2Cc2cccs2)c1	0.0%	-0.8
CCOCCCn1c(=N)c(C(=O)NCC2CCCO2)cc2c(=O)n3cc(C)ccc3nc21 (stereo not drawn)	1.0%	-0.5
COc1ccc(C)cc1NC(=O)c1nnn(CC(=O)Nc2c(C)cccc2C)c1N	?	-0.4
Cc1c(-c2ccccc2)nc2c(Cl)cccc2c1C(=O)OCC(=O)c1ccc(F)cc1	0.6%	-0.6
CCC(=O)N1CCc2cc(S(=O)(=O)NC(CC(C)C)C(=O)NCc3ccc(F)cc3)ccc21 (stereo not drawn)	1.1%	0.7
COc1ccccc1CNC(=O)CSc1ncc(S(=O)(=O)c2ccc(C)c(Cl)c2)c(=O)[nH]1	0.3%	1.8
COCCNC(=O)c1ccc(-n2c(-c3ccccc3)cc3c2CCC(C)C3)cc1 (stereo not drawn)	-0.2%	1.3
CC(C)(C)OC(=O)N1CCC(c2c(C(=O)N3CCC(c4ccccc4)C3)cnn2-c2ccc(Cl)cc2)CC1 (stereo not drawn)	2.4%	27.9
CCCCn1c(NCc2cc(Br)ccc2O)nc2ccccc21	?	-0.1
Cc1c(C(=O)N2CCCC2)oc2c1-c1nn(CC(=O)NCc3cccc(Br)c3)cc1CC2	1.2%	1.7
N#Cc1ccccc1NC(=O)C(=O)NCCc1csc2nc(-c3cccc(F)c3)nn12	-1.0%	2.1
CC(=O)NCCNc1nc2c(S(=O)(=O)c3ccc(C)c(C)c3)nnn2c2ccc(Cl)cc12	2.0%	-0.2
CCOC(=O)c1ccc(NC(=O)CCc2c(C)nc3c(c(C)nn3-c3ccccc3)c2C)cc1	1.4%	1.7
Cc1oc(-c2ccccc2F)nc1Cn1c(SCc2cccc(Cl)c2)nc2ccncc21	0.9%	0.1
CCOc1ccc(CNC(=O)C2=Cc3cc(Br)ccc3OC2)cc1OC	0.3%	1.3
O=C(NCc1ccc(F)cc1)c1cc(Sc2ccc(F)cc2F)nc2ccccc12	2.1%	0.6
COc1cccc2c1cc1c(=O)n(CC(=O)N3CCN(c4cccc(Cl)c4)CC3)nc(C)n12	1.2%	-0.3
CS(=O)(=O)N1CCC(n2c(C(F)(F)F)nc3cccnc32)CC1	3.8%	0.1
CC(=O)Nc1ccc(S(=O)(=O)NC2=NCN(C(C)C)CN2)cc1	-1.0%	-0.4
COc1ccc(C(=O)Nc2cccc(OCc3cc(=O)n4c5c(sc4n3)CCCC5)c2)cc1OC	1.9%	0.4
O=C(Cc1ccccc1)Nc1sc2c(c1C(=O)Nc1ccccc1Cl)CCCC2	-0.2%	1.6
CSc1cccc(NC(=O)CN2C(=O)COc3ccc(Cl)cc32)c1	3.7%	0.3
COc1ccc(NC(=O)CSc2nc(-c3cccs3)cc(C(F)(F)F)n2)cc1Cl	9.5%	-0.2
Cc1cc(N)c(-n2cc3c(c2-c2ccc(Br)cc2)c(=O)n(C)c(=O)n3C)cc1C	0.2%	-0.8
C#CCOc1ccc(-c2nnc(Nc3ccc(NC(C)=O)cc3)c3ccccc23)cc1	-0.1%	0.4
O=C(c1ccc2c(c1)N(Cc1ccc(F)cc1)C(=O)c1ccccc1S2(=O)=O)N1CCCC1	1.0%	-0.7
Cc1ccccc1C(=O)Nc1ccccc1C(=O)OCc1cc(=O)n2nc(C3CC3)sc2n1	2.7%	-0.7
COc1ccc(OC)c(NC(=O)CC2C(=O)NCCN2C(=O)C(F)(F)F)c1 (stereo not drawn)	0.0%	1.0
Cc1ccc2c(CC(=O)Nc3cccc(C(F)(F)F)c3)coc2c1	?	0.7
Cc1ccc(Sc2ccc(N3CCCC(C(=O)Nc4ccc(F)cc4F)C3)nn2)cc1 (stereo not drawn)	7.0%	0.9

Part of the list above, as a markdown table.
| Molecule | PINK1 modulator | TRPML1 ag |
| --- | --- | --- |
| Cc1ccccc1C(=O)Nc1ccccc1C(=O)OCc1cc(=O)n2nc(C3CC3)sc2n1 | 2.7% | -0.7 |
| COc1ccc(OC)c(NC(=O)CC2C(=O)NCCN2C(=O)C(F)(F)F)c1 (stereo not drawn) | 0.0% | 1.0 |
| Cc1ccc2c(CC(=O)Nc3cccc(C(F)(F)F)c3)coc2c1 | ? | 0.7 |
| Cc1ccc(Sc2ccc(N3CCCC(C(=O)Nc4ccc(F)cc4F)C3)nn2)cc1 (stereo not drawn) | 7.0% | 0.9 |

The listing continues.
SMILES	PINK1 modulator	TRPML1 ag
Cc1nc([N+](=O)[O-])cn1CC(O)c1ccc2c(c1)OCO2 (stereo not drawn)	0.1%	-0.7
Cc1ccc2c(c1)N(C(=O)CCC(=O)NCc1cccc(F)c1)CC(C)O2 (stereo not drawn)	-0.4%	1.5
CCC1Oc2ccc(C)cc2N(CC(=O)NCc2ccc(OC)cc2)C1=O (stereo not drawn)	-1.5%	0.3
CCOC(=O)Cc1ccc(NC(=O)NCc2ccc3c(c2)CCN3C(=O)CC)cc1	7.6%	2.1
COc1ccc(CCNC(=O)c2cnc3sc(N4CCCCCC4)nn3c2=O)cc1OC	0.6%	-0.4
COC(=O)c1c(NC(=O)COc2ccc(C)cc2Br)sc2c1CCCC2	1.4%	-0.6
Cc1ccccc1Cn1c(C)c(CNCc2ccccc2)c(C(=O)O)c1C	0.1%	0.2
COc1ccc(CNC(=O)c2ccc(-c3nc(CSc4ccccc4)c(C)o3)cc2)c(OC)c1	0.0%	0.4
Cn1cc(CN(C(=O)Nc2ccccc2)C2CCCCC2)c2ccccc21	-1.0%	-0.2
Cn1c(=O)oc2cc(S(=O)(=O)NC(Cc3ccccc3)C(=O)NCc3ccccc3Cl)ccc21 (stereo not drawn)	5.1%	-0.3
CCOc1ccc(-n2cc(-c3ccccc3)c3c(NC4CCCCC4)ncnc32)cc1	1.8%	0.6
COc1ccc(NC(=O)c2cc(C3CC3)nc3c2c(C)nn3-c2ccccc2)cc1OC	-0.1%	0.3

Some of the entries above, set out differently.
| Structure | PINK1 modulator | TRPML1 ag |
| --- | --- | --- |
| CCOC(=O)c1ccc(NC(=O)CCc2c(C)nc3c(c(C)nn3-c3ccccc3)c2C)cc1 | 1.4% | 1.7 |
| CCCCn1c(NCc2cc(Br)ccc2O)nc2ccccc21 | ? | -0.1 |

Following part.
SMILES	PINK1 modulator	TRPML1 ag
Cc1cc(F)ccc1NC(=O)CCS(=O)(=O)c1ccc2c(c1)CC(C)N2C(=O)C1CC1 (stereo not drawn)	0.1%	-1.0
Cc1cccc(CN2CCC(CNc3ncnc4onc(-c5ccc(Cl)cc5)c34)CC2)c1	1.7%	-1.1
O=C(Nc1ccc(Br)cc1F)c1cc(S(=O)(=O)NC2CCCCC2)ccc1F	0.2%	3.2
Cc1cccc(C)c1-n1ncc(C(=O)N2CCN(c3ncccn3)CC2)c1C1CCN(C(=O)OC(C)(C)C)CC1	0.7%	3.7
CCOc1ccccc1NC(=O)N1CCC(n2c(C)nc3cccnc32)CC1	-0.5%	0.2
COc1ccc(C)cc1NC(=O)CSc1nc2ccccc2nc1N1CCOCC1	1.9%	1.2
COc1ccc2c(c1)CCc1c(C(=O)Nc3c(C)nn(Cc4ccc(C)cc4)c3C)noc1-2	1.4%	3.3
COC(=O)c1ccc(NC(=O)CSc2nc(C)cc(C)c2C(=O)Nc2ccccc2)cc1	0.4%	3.5
CCN(CC)CCNC(=O)C1CCN(C(=O)c2cnn(-c3ccccc3)c2-n2cccc2)CC1	1.5%	-0.3
Cc1ccc(NC(=O)c2c(C)oc3ccc(O)c(CN4CCCCC4)c23)c(C)c1	-0.1%	-0.1
CCC(C)NC(=O)CCCc1nnc2n(CC(C)C)c(=O)c3sccc3n12 (stereo not drawn)	-0.3%	-0.7
Cc1ccc(C)c(NC(=O)CCCN2C(=O)C(c3ccccc3)Oc3cccnc32)c1 (stereo not drawn)	7.1%	1.5
CCCS(=O)(=O)c1nc(S(=O)(=O)c2ccc(C)cc2)c(N(CC)CC)s1	1.8%	2.1
COc1ccc(NC(=O)Cn2c(=O)oc3cc(S(=O)(=O)N4CCC(C)CC4)ccc32)c(OC)c1	8.4%	0.0
COc1ccc(OC)c(NC(=O)CSc2nc3ccccc3c(=O)n2CCC(=O)NC2CCCCC2)c1	0.0%	0.1
COc1ccccc1OCC(=O)N(Cc1ccc(N(C)C)cc1)CC1CCCO1 (stereo not drawn)	0.8%	-0.1
CCCCOC(=O)c1c(C)oc2ccc(NS(=O)(=O)c3ccc(F)cc3C)cc12	6.4%	0.7
CCN1CCN(Cc2c(O)ccc3c(C)c(-c4ccc(OC)cc4)c(=O)oc23)CC1	-1.2%	-0.7
Cc1ccc(CNC(=O)Cn2c(=O)ccc3cc(S(=O)(=O)N4CCC(C)CC4)ccc32)cc1	-4.6%	0.7
C#CC(C)(C)NS(=O)(=O)c1cc(-c2nnc(Nc3ccc(C)cc3)c3ccccc23)ccc1C	3.9%	-0.8
Cc1cccc(NC(=O)N2CCC(CN3CCCCCC3)CC2)c1C	0.4%	0.7
Cc1nn(C(=O)c2c(F)cccc2F)c(C)c1S(=O)(=O)N1CCCCCC1	1.0%	-0.7
CC1CCCN(c2cc3c(cc2F)c(=O)c(S(=O)(=O)c2cccc(Cl)c2)cn3C)C1 (stereo not drawn)	20.1%	1.3
COc1cc2nc(NCCC(C)C)n3nc(-c4ccccc4)nc3c2cc1OC	0.2%	-0.7
Cc1ccc(-n2nnnc2CNC(=O)c2ccccc2C)cc1C	0.0%	-0.9
Cc1ccc(OCC(=O)Nc2ccc(Cl)c(-c3nc4ncccc4o3)c2)cc1C	-1.4%	2.9
NC(=O)c1c(NC(=O)c2noc3c2CCCC3)sc2c1CCCC2	-0.4%	-0.6
Cc1ccc(C)c(NC(=O)Cn2nnc(C(=O)NCc3ccccc3Cl)c2N)c1	-0.6%	1.1
Cc1cccc(NC(=O)Cn2cc(S(=O)(=O)N3CCCC3)c(S(=O)(=O)N3CCCC3)c2)c1C	4.6%	0.4
Cc1ccc(Cl)cc1-n1ncc2c(Nc3ccc4c(c3)OCCO4)ncnc21	1.3%	1.2
COCCN1C(=O)c2oc3ccc(C)cc3c(=O)c2C1c1ccc(C(=O)OC)cc1 (stereo not drawn)	-0.4%	0.1
COc1ccc(NC(=O)CCNS(=O)(=O)c2ccc3c(c2)CCCC(=O)N3)cc1Cl	-0.4%	0.7
COc1ccc(C)cc1NC(=O)Nc1cccc(-c2noc(C)n2)c1	-2.5%	0.0
Cc1ccc(C2CC(=O)N(Cc3ccc(F)cc3)c3c2c(C)nn3-c2nc(C)cc(C)n2)cc1 (stereo not drawn)	6.2%	0.1
COc1ccccc1CNC(=O)C1CCC(CNS(=O)(=O)c2ccc3c(c2)CCCC(=O)N3)CC1 (stereo not drawn)	0.1%	-0.9
CC(=O)Nc1cccc(NC(=O)Cn2cnc3c(oc4ccccc43)c2=O)c1	1.0%	-0.9

Four of the entries above in order of the PINK1 modulator value, descending.
| compound | PINK1 modulator |
| --- | --- |
| Cc1ccc(C2CC(=O)N(Cc3ccc(F)cc3)c3c2c(C)nn3-c2nc(C)cc(C)n2)cc1 (stereo not drawn) | 6.2% |
| Cc1ccc(Cl)cc1-n1ncc2c(Nc3ccc4c(c3)OCCO4)ncnc21 | 1.3% |
| Cc1ccc(OCC(=O)Nc2ccc(Cl)c(-c3nc4ncccc4o3)c2)cc1C | -1.4% |
| COc1ccc(C)cc1NC(=O)Nc1cccc(-c2noc(C)n2)c1 | -2.5% |

The results go on:
SMILES	PINK1 modulator	TRPML1 ag
N#Cc1c(-c2ccccc2)cc(-c2ccccc2)nc1SCC(O)CS(=O)(=O)Cc1ccc(Cl)cc1 (stereo not drawn)	0.0%	0.4
COc1ccc(CCNC(=O)c2ccc3c(c2)N(Cc2ccccc2Cl)C(=O)c2ccccc2S3)cc1OC	0.0%	2.9
COC(=O)c1c(NC(=O)COc2ccc(C(C)C)cc2)sc2c1CCCC2	0.7%	3.4
COC(=O)c1sc(N2C(=O)c3oc4ccccc4c(=O)c3C2c2ccc(O)cc2)nc1C (stereo not drawn)	2.4%	2.3
Cc1ccccc1NC(=O)c1c(C)oc2ccc(O)c(CN3CCN(C)CC3)c12	1.1%	-0.4
COc1cc(NC(=O)CSc2nc3nc(C)c(Cc4ccccc4Cl)c(C)n3n2)cc(OC)c1	-0.7%	-0.3
Cc1cccc(NC(=O)Cn2nc(N3CCN(c4ccccc4)CC3)ccc2=O)c1C	3.9%	0.8
COc1ccc(-c2cc(C(C)=O)c(C)n2CCC(=O)NC2CCCCC2)cc1	1.6%	2.1
CCOc1ccccc1NC(=O)C1CCN(S(=O)(=O)Cc2ccccc2)CC1	-0.4%	-1.2
Cc1ccc(CN(C(=O)Nc2cccc(Cl)c2)c2ccccn2)cc1	6.3%	1.4
COc1ccccc1-c1nc(SCC(=O)Nc2ccc(C)c(C)c2)n[nH]1	2.6%	0.0

Only part of the results is shown; the hit share may differ from the screen's.
